VDR inhibitor: blocks the human vitamin D receptor. P11473. 0.93% of 400,000 active. VDR-SRC2-3 peptide fluorescence polarization, 2 h. Potency, µM, for the others: max response, negative = inhibition, usual class: inhibitors; active = well fitted inhibition curve with a large enough effect; inconclusive = small, poorly fitted or top-dose-only effect, or another doubt; inactive = no such curve, though single readings can be large or run the other way; note: series mostly up to about 120 µM
Target sequence (P11473 whole entry, looked up): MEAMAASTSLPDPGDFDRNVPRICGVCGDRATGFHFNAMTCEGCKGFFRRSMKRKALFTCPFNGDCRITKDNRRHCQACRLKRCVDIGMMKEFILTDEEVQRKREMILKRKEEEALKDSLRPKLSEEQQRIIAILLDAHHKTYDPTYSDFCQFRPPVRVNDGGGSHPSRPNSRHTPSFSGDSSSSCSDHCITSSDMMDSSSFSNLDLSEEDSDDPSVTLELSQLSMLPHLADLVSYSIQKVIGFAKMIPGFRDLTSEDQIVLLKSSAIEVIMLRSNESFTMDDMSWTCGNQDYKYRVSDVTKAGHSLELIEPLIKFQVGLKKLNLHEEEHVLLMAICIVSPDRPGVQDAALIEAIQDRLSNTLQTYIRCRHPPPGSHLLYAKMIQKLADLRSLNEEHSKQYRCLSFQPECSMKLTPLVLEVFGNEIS
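Measured by FP: displacement of SRC2-3 coactivator peptide from VDR by library compounds, following a two-hour ambient incubation.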
* = called active by the depositor; ? = inconclusive; & = joins results of further samples; [ ] = dose if it differs, or a comment. % is set by controls: 0 for no effect and ±100 for the full control effect; potency is the fitted concentration of half-maximal effect. An excerpt; the hit share may differ from the screen's.

| VDR inhibitor | SMILES |
| --- | --- |
| 6% | O=C(CC1NCCNC1=O)Nc1ccc(Oc2ccccc2)cc1 (configuration not stated) |
| 20% | Cc1cccnc1NC(=O)CCn1c(=O)oc2ccccc21 |
| -4% | COCCN(C(=O)COC(=O)/C=C/c1ccccc1Cl)c1c(N)n(Cc2ccccc2)c(=O)[nH]c1=O |
| 12% | COc1cc(C(=O)NCc2nnc(SCC(=O)N3CCOCC3)o2)cc(OC)c1OC |
| 17% | COc1ccc(-c2cc(-c3ccccc3)c(C#N)c(SCC(O)CS(=O)(=O)Cc3ccccc3)n2)cc1 (configuration not stated) |
| -4% | CN(CC(=O)Nc1c(Cl)cccc1Cl)C(=O)c1ccccc1SCC(=O)N1CCCC1 |
| -5% | COc1ccc(NC(=O)Nc2nnc(C(C)(C)C)s2)cc1 |
| 2% | CCOc1cc(CN2CCCC(CO)(Cc3ccc(F)cc3F)C2)ccc1OC (configuration not stated) |
| 6% | COC(=O)c1cccc(N2C(=O)c3cccnc3C2=O)c1 |
| -7% | CCCCCCSc1ccc(-c2nc3ccc(C)cn3c2NCc2ccccc2)cc1OC |
| 36%[activator] | CC1CCC(NC(=O)c2ccc(CS(=O)(=O)c3ccc(Cl)cc3)o2)CC1 (configuration not stated) |
| -8% | O=C(CSc1nc2ccccc2c(=O)n1-c1ccc(F)cc1F)Nc1ccc(N2CCOCC2)cc1 |
| -3% | Cc1cc(C)cc(NC(=O)N2CCC3(CC2)Oc2ccccc2C(=O)N3Cc2ccccc2F)c1 |
| 3% | Cc1cccc(C)c1NC(=O)COC(=O)c1cc[n+]([O-])cc1 |
| -8% | Cc1ccc(S(=O)(=O)n2nc(C)c(Br)c2C)c(C)c1C |
| 8% | Cn1nnnc1SCC(=O)Nc1cc(S(=O)(=O)N2CCCC2)ccc1Cl |

Part of the list above, set out differently:
Molecule | VDR inhibitor
CCCCCCSc1ccc(-c2nc3ccc(C)cn3c2NCc2ccccc2)cc1OC | -7%
CC1CCC(NC(=O)c2ccc(CS(=O)(=O)c3ccc(Cl)cc3)o2)CC1 (configuration not stated) | 36%[activator]
O=C(CSc1nc2ccccc2c(=O)n1-c1ccc(F)cc1F)Nc1ccc(N2CCOCC2)cc1 | -8%
Cc1cc(C)cc(NC(=O)N2CCC3(CC2)Oc2ccccc2C(=O)N3Cc2ccccc2F)c1 | -3%
Cc1cccc(C)c1NC(=O)COC(=O)c1cc[n+]([O-])cc1 | 3%
Cc1ccc(S(=O)(=O)n2nc(C)c(Br)c2C)c(C)c1C | -8%

Further records follow:
| VDR inhibitor | SMILES |
| --- | --- |
| -17% | COc1cccc(CN(C)C(=O)/C=C/c2ccc(S(=O)(=O)N3CCCCCC3)cc2)c1 |
| -3% | CCOC(=O)c1c(S(=O)(=O)N(C)Cc2ccccc2)c(C)n(C)c1C |
| -1% | Cc1onc(-c2ccccc2Cl)c1C(=O)N1CCc2ccccc2C1 |
| -6% | CCOc1cc(/C=N/NC(=O)C(=O)NCC2CCCO2)ccc1OCC(=O)N1CCOCC1 (configuration not stated) |
| -4% | CCOC(=O)C1=C(C)NC(=O)NC1c1ccc(-c2ccc(F)cc2)o1 (configuration not stated) |
| 2% | CCn1c(C(=O)N2CCC(C(=O)N3CCN(c4cc(C)ccc4C)CC3)CC2)cc2sccc21 |
| -2% | CC(OC(=O)C1CC(O)CN1S(=O)(=O)c1ccccc1[N+](=O)[O-])C(=O)N1CCCCC1 (configuration not stated) |
| ? | O=C(NC(=S)Nc1ccccc1N1CCCC1)c1cccs1 |
| -5% | CC(=O)Nc1ccc(NC(=O)[C@@H](NC(=O)c2ccccc2F)C(C)C)cc1 |
| 2% | O=C(CSc1nc2c([nH]c3ccccc32)c(=O)n1-c1ccccc1)Nc1ccc2c(c1)OCO2 |
| -15% | CN(C)CCCNc1oc(/C=C/c2ccccc2)nc1C#N |
| -6% | CCOc1ccc(-c2nc3c(C#N)c[nH]n3c2NC2CCCCC2)cc1 |
| 1% | COC(=O)c1c(NC(=O)COC(=O)c2ccc(Cl)nc2)sc(C)c1C |
| 10% | CC(C)c1ccc(C(O)P(=O)(OCc2ccccc2)c2ccc(N(C)C)cc2)cc1 (configuration not stated) |
| 4% | CCN(CC)S(=O)(=O)c1ccc(=O)[nH]c1 |
| 2% | CNc1c(NS(=O)(=O)c2ccc(F)cc2)c(=O)oc2ccccc12 |
| -5% | CCOC(=O)C(OC(=O)c1sc(=S)n(C)c1C)C(C)=O (configuration not stated) |
| -8% | O=[N+]([O-])C1=C(Nc2cccc3ccccc23)CS(=O)(=O)C1 |
| -3% | CN(C)c1cccc(N(C)C)c1CNC(=O)NC(=O)c1c(F)cccc1F |
| -15% | COCCN(C(=O)c1ccc(-c2ccc([N+](=O)[O-])cc2)o1)c1c(N)n(CC(C)C)c(=O)[nH]c1=O |
| -2% | CN1CCN(C(c2ccccc2)c2ccc(Cl)cc2)CC1 (configuration not stated) |
| 9% | FCCCOc1ccc(-c2nccc(-c3ccc(Br)cc3)n2)cc1 |
| -16% | O=C(CSc1nnc(-c2cnccn2)n1Cc1ccco1)c1ccccc1 |
| -4% | COC(=O)[C@@H](NC(=O)NCc1ccc(F)cc1)C(C)C |
| -30% | CCc1cc(=O)oc2c3c(cc(OCC(=O)NCCN4CCOCC4)c12)OC(C)(C)CC3 |
| -13% | C=CCOC(=O)C1=C[C@@H](c2csc3ccccc23)C[C@@H](OCCCCO)O1 |
| 5% | O=c1[nH][nH]c(C(F)(F)F)c1C=NCc1ccccc1Cl |
| 0% | CC(=O)N1c2ccc(S(=O)(=O)N3CCCC(C(=O)N4CCCC(C)C4)C3)cc2CC1C (configuration not stated) |
| 17% | Cc1cccc(CNC(=O)Cc2csc3ccccc23)c1 |
| -2% | CCOC(=O)OC(C)OC(=O)C1N2C(=O)C(NC(=O)C(N)c3ccccc3)C2SC1(C)C (configuration not stated) |
| 15% | CCOC(=O)C1CCN(C(=O)c2cc3cc(Cl)ccc3[nH]2)CC1 |
| -1% | O=C(N/N=C/c1cccc(C(F)(F)F)c1)c1cc2c(s1)-c1ccccc1CC2 |
| 3% | O=c1cc(-c2ccc(F)cc2)nc(SCc2nc(-c3ccc(Cl)cc3)no2)[nH]1 |
| -18% | Cc1cc(NC2CCCCC2)nc(N2CCOCC2)n1 |
| 6% | COc1cc(OC)c(NS(=O)(=O)c2cc(C(=O)OC(C)C(=O)NC3CC3)c(Cl)cc2Cl)cc1Cl (configuration not stated) |
| 15% | O=C(Cn1c(=O)n(Cc2nc(-c3ccccc3)no2)c(=O)c2ccccc21)Nc1cccc(C(F)(F)F)c1 |
| -11% | COc1ccc(-n2cnc3sccc3c2=O)cc1 |
| -4% | Cn1c(SCC(=O)Nc2cccc(S(=O)(=O)N3CCOCC3)c2)nnc1-c1ccncc1 |
| 0% | O=C(CSc1ncc(-c2ccccc2)[nH]1)Nc1ccc(Cl)cc1 |
| -12% | COc1cccc(OC)c1C(=O)Nc1ccc(Br)c(C(=O)c2ccccc2)c1 |

Part of the list above in order of count of non-hydrogen atoms, lowest first:
| VDR inhibitor | SMILES |
| --- | --- |
| 0% | O=C(CSc1ncc(-c2ccccc2)[nH]1)Nc1ccc(Cl)cc1 |
| -12% | COc1cccc(OC)c1C(=O)Nc1ccc(Br)c(C(=O)c2ccccc2)c1 |
| -4% | Cn1c(SCC(=O)Nc2cccc(S(=O)(=O)N3CCOCC3)c2)nnc1-c1ccncc1 |

More results.
| VDR inhibitor | SMILES |
| --- | --- |
| -17% | COc1ccc(-n2ncc(C(C)NS(=O)(=O)c3cc(F)ccc3C)c2C)cc1 (configuration not stated) |
| -5% | O=C(Nc1ccccn1)c1ccc(C(=O)Nc2ccccn2)cc1 |
| -16% | O=C(O)COc1ccc(NC(=O)c2ccc3c(c2)C(=O)N(Cc2ccccc2)C3=O)cc1 |
| -5% | CCOC(=O)N1CCN(C(=O)c2ccccc2NC(=O)COc2ccccc2)CC1 |
| ? | S=c1nc[nH]c2c1ncn2C1CCCO1 (configuration not stated) |
| 1% | CCC(C)NC(=O)Cn1c(COc2ccc(Cl)cc2Cl)nc2ccccc21 (configuration not stated) |
| -5% | Cc1cc(C)c2cc(CN(Cc3ccco3)C(=O)NCc3ccccc3)c(=O)[nH]c2c1 |
| 7% | Cc1nc(C)c(C(=O)OCC(=O)N2CCN(c3ccccc3)CC2)s1 |
| 0% | COc1cccc(NC(=O)C2C3C=CC(O3)C2C(=O)O)c1 (configuration not stated) |
| 0% | CCCCCCOC(=O)c1cccnc1 |
| 15% | Cc1ccc([N+](=O)[O-])cc1S(=O)(=O)Nc1ccc(C(=O)N(C)C)cc1 |
| 2% | CCC(C(=O)Nc1ccccc1-c1ccccc1)c1ccccc1 (configuration not stated) |
| 26% | COC(=O)c1cccc(NC(=O)c2ccc3c(c2)C(=O)N(CC2CCCO2)C3=O)c1 (configuration not stated) |
| -8% | CCOc1cccc(C(=O)N(Cc2ccc(C(C)C)cc2)C2CCS(=O)(=O)C2)c1 (configuration not stated) |
| -20% | Cc1ccc(C)c(Cn2nnc3c(=O)[nH]c(C4CCCN(C(=O)c5cccs5)C4)nc32)c1 (configuration not stated) |
| -17% | O=C(Nc1ccc2[nH]ccc2c1)c1cccs1 |
| -5% | O=C1OCCN1CC(=O)N1CCc2c([nH]c3ccccc23)C1c1ccccn1 (configuration not stated) |
| ? | Cc1ccc2nc(NC(=O)CSc3ncnc4c3oc3ccccc34)sc2c1 |
| -15% | COc1c(OC(C)=O)ccc(/C=C/c2ccc3cccc(OC)c3n2)c1[N+](=O)[O-] |
| 10% | COc1cc(C2C(C(=O)N3CCOCC3)=C(C)NC3=C2C(=O)CCC3)ccc1OC(C)=O (configuration not stated) |
| 9%&-7% | Cn1c(=NC(=O)CN2C(=O)C3CC=CCC3C2=O)sc2ccccc21 (configuration not stated) |
| -16% | CCc1cccc2sc(N3CCN(C(=O)c4ccc([N+](=O)[O-])o4)CC3)nc12 |
| -4% | Cc1ccc(Cl)cc1N1CCN(C(=O)c2ccc3c(Cl)c4c(nc3c2)CCCC4)CC1 |
| 9% | Cc1cccc(CC(=O)Nc2c3c(nn2-c2cccc(Cl)c2)CS(=O)C3)c1 (configuration not stated) |
| 5% | Cc1cc(CN2CCCCC2)oc1C(=O)O |
| -4% | CC(=O)N1CCC2(CC1)CN(C(c1ccccc1)c1ccccc1)C2 |
| 13% | COCCn1c(-c2ccccc2)cnc1SCC(=O)Nc1cccc2ccccc12 |
| -7% | C=CCN1C(=O)c2ccccc2Sc2ccc(C(=O)NCCC)cc21 |
| 1%&2%&96% | CN=C(N)NCCC[C@H](N)C(=O)O |
| 14% | COc1ccc(NC(=O)c2cc(=O)c3ccc(C)c(C)c3o2)cc1Cl |
| 9% | COc1ccc2c(c1)cc(CNc1ccc(OC)c(OC)c1)c(=O)n2CC(=O)Nc1ccc(F)cc1 |
| -4% | COc1ccc([C@H]2CC(=O)C=C(c3cc(Cl)ccc3OC)C2)cc1 |
| -25% | Cc1cc(C)cc(NC(=O)CN2CCC(NC(=O)c3cccc(F)c3)CC2)c1 |
| 4% | Cc1c(N2C(=O)C(=O)/C(=C(/O)c3ccc(Br)cc3)C2c2cccnc2)c(=O)n(-c2ccccc2)n1C (configuration not stated) |
| -21% | COc1ccc(N2CC(C(=O)NCCc3ccc(Cl)cc3)CC2=O)c(OC)c1 (configuration not stated) |
| -5% | N/C(=N\OC(=O)Cc1ccc(-c2ccccc2)cc1)c1cccc([N+](=O)[O-])c1 |
| -27% | CN(Cc1ccccc1F)C(=O)COc1ccc(C(=O)c2ccccc2)cc1 |
| 12% | O=C(Nc1cccc(Cl)c1)OCc1cn(-c2ccccc2)nn1 |
| ? | O=C(CN1CCN(C(=O)CNC(=O)c2ccc3c(c2)OCO3)CC1)Nc1ccc(F)cc1 |
| 4% | Cc1cc2nc(C)n(CCCNC(=O)Nc3ccccc3)c2cc1C |
| 9% | O=C(OCCCOC(=O)c1cc[n+]([O-])cc1)c1cc[n+]([O-])cc1 |
| -15% | N#Cc1ccc(S(=O)(=O)N2CCN(CC(=O)NCC3(N4CCOCC4)CCCCC3)CC2)cc1 |
| -3% | COc1ccc(C(=O)Nc2nc3ccccc3[nH]2)cc1OC |
| ? | O=C(NC(=S)Nn1cnnc1)c1ccccc1Br |
| -5% | Cc1cc(C)c(C(N)=O)c(SCC(=O)c2cc(C)c(C)cc2C)n1 |
| 2% | COc1ccc(CN2CCN(C(=O)c3cccs3)CC2)cc1 |
| -16% | Cc1sc2ncnc(N3CCC(C(=O)N4CC(C)SC4=Nc4ccc(Cl)cc4)CC3)c2c1C (configuration not stated) |
| -14% | CCOc1ccc(C(C)=O)cc1CN1C(=O)C(=O)N(CC)C1=O |
| 19% | COc1cccc(C(=O)Nc2ccc3c(cc2=O)[C@@H](NC(C)=O)CCc2cc(OC)c(OC)c(OC)c2-3)c1 |
| -14% | C=CCOC(=O)C(=O)/C=C/c1c(C)n(C)n(-c2ccccc2)c1=O |
| -6% | CC(C)(C)c1ccc(S(=O)(=O)Nc2cccnc2)cc1 |
| -1% | CCc1cccc(NC(=O)Cn2c(C(=O)OC)cc3occc32)c1 |
| 17% | COc1cc(/C=C/C(=O)OCC(=O)NC(=O)C2COc3ccccc3O2)ccc1OC(F)F (configuration not stated) |
| -27% | Nc1c(-c2nc(-c3ccccc3)no2)nnn1CC(=O)Nc1ccccc1 |
| 0% | COc1cc(NC2c3ccccc3C(=O)N2Cc2ccccc2Cl)cc(OC)c1OC (configuration not stated) |
| 6% | CCNC(=S)N/N=C(\C)c1ccc2ccccc2c1OC(F)F |

More records follow:
| VDR inhibitor | SMILES |
| --- | --- |
| 1%&19% | Cc1ccc(NC(=O)OCCN2CCN(Cc3ccccc3)CCC2=O)cc1 |
| -2% | NC(=O)C1CCN(C(=O)CN(c2cccc(Cl)c2)S(=O)(=O)c2ccccc2)CC1 |
| -1% | O=C(Nc1ccc(F)cc1)C1CCCO1 (configuration not stated) |
| 2% | CCCSc1nsc(N)n1 |
